# Bioassay records (PubChem)
# HCMV NEC inh: inhibitors of HCMV UL50-UL53 interaction, biochemical, HTRF; HCMV UL50-UL53 nuclear egress complex (human cytomegalovirus); normalized percent inhibition; inhibition, % (concentration not given with the values); actives 0.15% (n = 190,000); AID 1918969, 2023;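 active = both replicates at 50% or more, plus weaker picks with an unusually low signal ratio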;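 note: stock transfer was 100 nL into about 20 µL; 0% = negative control wells and 100% = wells with untagged competitor protein; inactives centre near -12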
# GIV-Gai inh: inhibitors of GIV peptide binding to Galpha-i3, primary screen, biochemical, fluorescence polarization, FITC-GIV GBA peptide, rat Galphai3; 90 min; hits give low values; scaled: aluminum fluoride 0%, vehicle 100%; Guanine nucleotide-binding protein G(i) subunit alpha-3 (Rattus norvegicus), P08753; actives 0.42% (n = 210,000); percent of control (FP), % (no concentration beside the values); AID 1224905, 2016;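 active = replicate mean at 85% of control or lower, very high polarization wells dropped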;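 note: wells of about 15 µL received 100 nL stock; the first replicate is given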
# Target sequence (P08753 whole entry, looked up): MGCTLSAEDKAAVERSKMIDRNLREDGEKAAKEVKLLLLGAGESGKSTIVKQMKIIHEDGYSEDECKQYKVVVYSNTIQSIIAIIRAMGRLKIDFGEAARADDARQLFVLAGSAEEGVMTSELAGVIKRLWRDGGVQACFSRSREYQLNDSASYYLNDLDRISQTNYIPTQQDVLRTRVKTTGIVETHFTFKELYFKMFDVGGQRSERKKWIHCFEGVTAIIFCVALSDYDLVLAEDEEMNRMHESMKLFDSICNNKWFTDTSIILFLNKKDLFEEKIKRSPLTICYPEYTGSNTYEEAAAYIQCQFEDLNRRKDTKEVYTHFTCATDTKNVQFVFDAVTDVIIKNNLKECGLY
# Sa growth inh: S. aureus growth inhibition at 42 and 30 °C, primary screen, LtaS inhibitor project, RN4220, two temperatures; AID 720641, 2013; relative growth, % (concentration not given with the values); actives 0.53% (n = 170,000); OD600, 20 h, 42 °C; hits give low values;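 active = growth at 42 °C up to 50% and 20 or more points under that at 30 °C, or under 10% at both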;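 note: 300 nL library stock went into each well; scaled to the means of positive and negative controls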
# Sa growth inh second temp: recorded beside Sa growth inh, whose call it bears; relative growth, %; measured here: growth at 30 °C;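 optical density after 20 h as mean of two plates; 100% = untreated growth and lower means inhibition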
# Active calls of the source: *; . = no result given; & = joins results of further samples; ! = a repeat was not active. The order is random. About 0.83% of those tested had a hit in this group.
# Start of the data: the first two records, to show the layout:
compound	HCMV NEC inh	GIV-Gai inh	Sa growth inh	Sa growth inh second temp
COc1cccc(C2CC(c3cccs3)=NN2C(=O)CSc2nncn2C)c1OC (configuration not stated)	.	93	96	84
COc1ccccc1-c1coc2cc(OCC(=O)O)ccc2c1=O	5	97	105	97

# Results, from the start:
compound	HCMV NEC inh	GIV-Gai inh	Sa growth inh	Sa growth inh second temp
COc1cccc(C2CC(c3cccs3)=NN2C(=O)CSc2nncn2C)c1OC (configuration not stated)	.	93	96	84
COc1ccccc1-c1coc2cc(OCC(=O)O)ccc2c1=O	5	97	105	97
CCC(C)NC(=O)c1cc(C(=O)c2ccccc2)c[nH]1 (configuration not stated)	-7	97	.	.
Cc1oc(-c2ccccc2Cl)nc1CS(=O)(=O)CC(=O)NC(C)c1ccccc1 (configuration not stated)	-11	103	102	78
Cc1cc2c(cc1S(=O)(=O)N1CCCC(C(=O)NC3CC3)C1)OCC(=O)N2 (configuration not stated)	-23	97	.	.
CCOc1ccc(NC(=O)N2CCCN(c3ccc(=O)n(-c4ccc(F)cc4)n3)CC2)cc1	-49	101	.	.
Cc1cc2c(cc1S(=O)(=O)NCCN1CCCCCC1)OCC(=O)N2	-7	103	78	88
Cc1cc(NS(=O)(=O)c2ccc(NS(=O)(=O)CC34CCC(CC3=O)C4(C)C)cc2)no1 (configuration not stated)	-15	.	49*	80*
O=C(Cn1cc(C(=O)c2ccco2)c2ccccc21)Nc1ccc(Br)cc1	5	97	103	97
COc1ccc(OC)c(S(=O)(=O)Nc2cccc(-c3ccc(N4CCCCC4)nn3)c2)c1	.	105	79	93
Cc1[nH]c2ccc3c(ncn3CCC#N)c2c1C	-28	101	89	85
Cc1cccc(C(=O)Nc2sc3c(c2C(=O)O)CCCC3)c1	-29	110	81	41
Cc1ccc(C)c(CN2C(=O)c3ccccc3S(=O)(=O)c3ccc(C(=O)N4CCN(c5ccccc5)CC4)cc32)c1	-15	109	120	106
CCOc1ccc(S(=O)(=O)NCC(c2ccco2)S(=O)(=O)c2cccs2)cc1 (configuration not stated)	.	96	140	78
COc1ccc(C(=O)CCC(=O)O)c(C)c1	-7	100	111	117
O=C(Nc1nc2ccccc2s1)c1cc(-c2cccnc2)nc2ccccc12	-4	108	.	.
Cc1ccc(C2=NN(C(=O)CNc3ccccc3C#N)C(c3ccco3)C2)cc1 (configuration not stated)	-2	.	128	80
Cc1cccc(NC(c2ccsc2)c2cc(C)sc2NC(=O)c2ccccc2)n1 (configuration not stated)	-23	109	.	.
COC(=O)C1=C(O)CSC1=Nc1cccc(C(F)(F)F)c1	.	106	89	86
O=C(Nc1cccc2nsnc12)c1ccccc1	-61	100	.	.
COc1ccccc1Nc1nc2nonc2nc1Nc1cccc(Br)c1	-34	101	.	.
O=C1CSc2ccc(C(=O)NCCN3CCCCCC3)cc2N1	-20	100	92	89
Cc1cc(C)c(C(=O)COc2ccccc2O)cc1C	-39	.	96	91
O=C(CNC(=O)c1ccccc1F)NC1CCN(Cc2ccccc2)CC1	-7	.	85	86
[O-]/C(=C(\C(=S)Nc1ccccc1)[n+]1ccccc1)c1ccccc1	3	.	99	88

# Part of the list above, with values under each structure:
# Results follow in this order: HCMV NEC inh	GIV-Gai inh	Sa growth inh	Sa growth inh second temp
Cc1cc2c(cc1S(=O)(=O)N1CCCC(C(=O)NC3CC3)C1)OCC(=O)N2 (configuration not stated)
    -23	97	.	.
CCOc1ccc(NC(=O)N2CCCN(c3ccc(=O)n(-c4ccc(F)cc4)n3)CC2)cc1
    -49	101	.	.

# The list continues.
compound	HCMV NEC inh	GIV-Gai inh	Sa growth inh	Sa growth inh second temp
Cc1cc(=O)n(-c2nc3ccccc3[nH]2)[nH]1	-3&-10	109&97	8.3*!	4.9*!
CCOC(=O)C1CCN(S(=O)(=O)c2cc(-c3cc(C)no3)ccc2C)CC1	.	100	94	84
CC1CCC(C2NC(=O)c3ccccc3O2)CC1 (configuration not stated)	10	.	109	94
Cc1ccc(CNC(=O)CCS(=O)(=O)c2ccc3c(c2)CC(C)N3C(=O)C2CC2)cc1 (configuration not stated)	.	105	107	82
CCc1ccc(N2C(=O)Nc3ccccc3N2O)cc1	.	102	95	94
Cc1noc(C)c1COc1cc2ccccc2cc1C(=O)NCC(F)(F)F	-24	.	95	97
Cc1cc(-c2ccc(C)c(S(=O)(=O)Nc3cccc(C(F)(F)F)c3)c2)on1	1	105	91	52
Cn1c(Cc2ccc(Cl)cc2)nc2ccccc21	-14	95	119	93
Cc1cccc(C(=O)Nc2cc(-c3ccccc3F)nn2-c2ccccc2)c1	.	100	85	90
O=C(NCc1ccc(Cl)cc1)c1ccc2c(=O)n3c(nc2c1)CCCCC3	-1	107	110	87
CC1CCN(C(=O)C2CCCN(S(=O)(=O)c3cn(C(C)C)cn3)C2)CC1 (configuration not stated)	-11	99	.	.
O=C(O)C1C2CCCCC2=C2CCCCC2C1C(=O)c1ccccc1 (configuration not stated)	-1	110	89	41
CN1CC=C(/C=C/c2ccccc2)CC1	-38	109	75	92
CC(C)NC(=O)c1ccc2snnc2c1	-4	104	82	82
Cn1nc(C(=O)Nc2ccc(F)c(Cl)c2)c2c1-c1ccsc1CC2	-10	106	.	.
O=C1C2ON(c3ccc(Br)cc3)C(c3cccnc3)C2C(=O)N1C1CCCCC1 (configuration not stated)	-9	99	113	86
COc1ccccc1-n1cnc2cc(N=Cc3ccccc3O)ccc21	.	110	117	95
O=C1Nc2ccccc2O/C1=C\c1ccc(C(=O)NCCCN2CCOCC2)cc1	-96	107	96	93
CCN(CC)c1ccc(C=C(C#N)C#N)c(OC(C)=O)c1	-97	157	98	101
Cc1noc2ncnc(N3CCCC(C(=O)NCCC(C)C)C3)c12 (configuration not stated)	.	103	95	77
O=C(Cn1ncc2c1-c1ccccc1OC2)NCc1ccccc1	-7&-26	99&106	88	78
COC(=O)C1=C(C)NC2=C(C(=O)CC(c3ccc(Cl)cc3)C2)C1c1cc2c(cc1Br)OCO2 (configuration not stated)	4	99	.	.
O=C1OCC(c2ccc(Cl)s2)=C1c1cccs1	-51	.	91	81
O=C(Sc1nc(-c2ccccc2)c(-c2ccccc2)[nH]1)c1cccs1	0	.	85	74
COc1ccc(C2C(C(=O)N3CCCCC3)c3ccccc3C(=O)N2c2ccc(OC)cc2)cc1 (configuration not stated)	.	103	100	90

# The list goes on.
compound	HCMV NEC inh	GIV-Gai inh	Sa growth inh	Sa growth inh second temp
COC(=O)c1cc(S(=O)(=O)N2CCCCCC2)c[nH]1	-14	97	105	85
CC(C)NC(=O)CCn1cnc2onc(-c3ccc(F)cc3)c2c1=O	13	97	96	103
Cc1ccc(Cn2c(=O)n(CCCCC(=O)NCc3ccc4c(c3)OCO4)c(=O)c3ccccc32)cc1	-27	101	87	89
O=C(C1CCN(S(=O)(=O)c2cccc3cccnc23)CC1)N1CCN(c2ccccc2)CC1	-26	103	.	.
COc1cccc(C2C3=C(CCCC3=O)OC3=C2C(=O)CCC3)c1OC	-17	106	.	.
Cc1ccccc1NS(=O)(=O)Cc1ccccc1	5	.	103	99
CC(CN1CCCCC1)C(=O)NN (configuration not stated)	.	105	91	95
Cc1cc(NC(=O)c2ccc3c(c2)NC(=O)c2ccccc2S3)ccc1Br	.	105	99	83
COc1cc(C2CC(=O)Nc3c2c(=O)[nH]c2nc4ccccc4n32)ccc1O (configuration not stated)	14	106	87	102
Fc1ccccc1CNCCCSc1nnnn1-c1ccccc1	-33	102	92	87
c1ccc2c(c1)Nc1cc3ccccc3cc1O2	-15	105	101	93
Cc1ccccc1NC(=O)CC1C(=O)NCCN1C(=O)c1cccc(Cl)c1 (configuration not stated)	-7	106	100	92
Cc1cccc(CSc2nc(N)cc(=O)[nH]2)c1	-5	.	74	94
CC(=O)NCCN=Cc1c(O)[nH]c(=O)[nH]c1=O	2	.	91	89
CCOc1ccccc1CNS(=O)(=O)c1cnc[nH]1	-15	104	118	87
COc1ccc(C2C(Oc3ccc(Cl)cc3C)C(=O)N2c2ccc(C)c(C)c2)cc1OC (configuration not stated)	-12	.	82	84
CO/C=C(/Oc1ccc(Cl)cc1Br)C(=O)OC	5	106	.	.
CCCCCn1c(NCc2ccccc2OC)nc2ccccc21	-12	100	59	51
CCCCNc1ncnc2c1nnn2C	.	95	92	86
O=S(=O)(Nc1ccccc1)c1ccc(N2CCCCS2(=O)=O)cc1	-12	104	105	84
O=C(NC1CCCC1)c1ccc2c(=O)n(Cc3ccccc3)c(SCc3cccc(F)c3)nc2c1	.	98	96	90
O=C(OCc1nc2ccccc2s1)[C@@H]1CCCN1S(=O)(=O)c1ccc(Cl)cc1	-19	.	94	88
O=C(Cc1cccc(C(F)(F)F)c1)Nc1nnc(-c2ccccc2)o1	-2	.	80	90
CCOC(=O)C1=C2SCCN2C(=O)C(C#N)C1(C)C (configuration not stated)	3	103	124	100
CCOC(=O)c1ccccc1NC(=O)Cn1cnc2onc(-c3ccc(Cl)cc3)c2c1=O	-26	102	.	.

# Sorted by molar mass (rising): part of the list above.
compound	HCMV NEC inh	GIV-Gai inh	Sa growth inh	Sa growth inh second temp
CCCCNc1ncnc2c1nnn2C	.	95	92	86
CO/C=C(/Oc1ccc(Cl)cc1Br)C(=O)OC	5	106	.	.
Cc1ccccc1NC(=O)CC1C(=O)NCCN1C(=O)c1cccc(Cl)c1 (configuration not stated)	-7	106	100	92

# Other records
compound	HCMV NEC inh	GIV-Gai inh	Sa growth inh	Sa growth inh second temp
CCc1ccc(NC(=O)Nc2ccc3nc(N4CCN(C)CC4)cc(C)c3c2)cc1	4	104	127	94
CCOC(=O)C1=CN(O)/C(=C\N=O)C=C1	-80	105	111	100
Cc1nn2cnnc2c(C)c1CCC(=O)N1CCCC1	-27	104	100	95
Cc1cc(OC(C)C(=O)O)cc(C)c1Cl (configuration not stated)	-24	95	117	93
O=C(N=Nc1c(O)[nH]c2cc3c(cc12)OCCCO3)C1CCCCC1	-52	.	78	94
Cn1ccnc1SCc1cc(=O)[nH]c2ccccc12	-3	.	98	83
COc1ccccc1N1CCN(S(=O)(=O)c2ccc(Cl)s2)CC1	.	110	84	91
CC(O)(C#CCN1CCCCC1)C1CC1 (configuration not stated)	-16	.	77	88
COc1cccc2c1cc1c(=O)n(CC(=O)N3CCN(c4cc(Cl)ccc4C)CC3)nc(C)n12	-8	102	115	93
COc1ccc2c(c1)CCc1c(C(=O)NCc3ccccc3)noc1-2	3	113	86	100
CCc1nn2c(=O)cc(CN(C)Cc3ccccc3)nc2s1	-10	103	109	87
COC(=O)C1=CN(C2CC2)C=C(C(=O)OC)C1c1ccc(OC(F)(F)F)cc1	-17	102	91	88
CC1=C(C(=O)OCC2CCCO2)C(c2coc3ccc(Cl)cc3c2=O)C2=C(CC(C)(C)CC2=O)N1 (configuration not stated)	-27	103	.	.
COc1ccc(-c2noc(CN(C(=O)Cc3ccc(C)cc3)C(C)C)n2)cc1	-30	97	110	90
O=C(Cn1c(=O)n(CC2CCCO2)c(=O)c2ccccc21)Nc1ccc(F)cc1F (configuration not stated)	-8	106	90	85
CC1CCN(CCCNC(=O)Cn2ncc3c([nH]c4ccccc43)c2=O)CC1	-32	106	108	94
CCCn1c(=O)c2sccc2n2c(SCc3ccc(Cl)cc3)nnc12	-44	103	.	.
CC(=C\c1ccccc1)/C=C1/SC(=S)N(C2CCCCC2)C1=O	.	104	99	91
Cc1ccc(CCNS(=O)(=O)c2ccc3c(c2)CC(C)N3C(=O)C2CCC2)cc1 (configuration not stated)	.	104	102	92
O=c1[nH][nH]c(=O)c2c(N=Cc3cccc4ccccc34)cccc12	-5	.	79	98
CC(=O)Nc1ccccc1-c1nc2ccccc2n(CC(=O)c2ccc(C)cc2)c1=O	-2	104	.	.
CCCCOc1ccc(C2=N/C(=C\c3cc(OC)c(OC)c(OC)c3)C(=O)O2)cc1	-33	100	.	.
Cc1ccc(NC(=O)Cn2c(=O)n(Cc3ccc(C(=O)NCc4ccc5c(c4)OCO5)cc3)c(=O)c3ccccc32)cc1	-6	105	108	90
CCC1CSC(Nc2ccccc2OC)=N1 (configuration not stated)	-4	.	86	86
Cc1nc(Nc2ccccc2)nc(Nc2ccccc2)c1NC(=O)c1ccccc1	-17	100	.	.

# Continued.
compound	HCMV NEC inh	GIV-Gai inh	Sa growth inh	Sa growth inh second temp
O=C(c1cc2occc2c(Nc2ccc(Cl)cc2)n1)N1CCN(c2ccccn2)CC1	8	113	.	.
C=CCn1c(O)c(N=O)c2ccccc21	-89	107	76	69
COc1ccc(C(=O)N(c2ccc(OC)cc2)S(=O)(=O)c2ccc3c(c2)n(C)c(=O)n3C)cc1	-24&-14	105&97	85	85
CC(Sc1nnc(N)s1)C(=O)N1N=C(c2ccc(Cl)cc2)CC1c1ccco1 (configuration not stated)	-11	.	97	107
C/C(=N\N=C1/NC(=O)C(CC(=O)O)S1)c1ccc(C)o1 (configuration not stated)	-21	108	85	108
